Sfp PPTase inh: qHTS Assay for Inhibitors of Bacillus subtilis Sfp phosphopantetheinyl transferase (PPTase) | 4'-phosphopantetheinyl transferase ffp (Bacillus subtilis), Q9F4F7 | Biochemical Sfp PPTase activity, qHTS | Potency, µM, for the others: max response, negative = inhibition, actives largely listed as inhibitors | 310,000 compounds, 3.5% hits | AID 1490, 2009; active = well fitted inhibition curve with a large enough effect; inconclusive = small, poorly fitted or top-dose-only effect, or another doubt; inactive = no such curve, though single readings can be large or run the other way;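 note: the enzyme is Sfp with the accession as filed and its product quenches rhodamine fluorescence; potency is the fitted concentration of half-maximal effect; 0% = enzyme reaction without inhibitor and -100% = no enzyme wells; top concentration of the series not given in the record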
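Fluorescence-quenching assay with 15 nM Sfp, 5 uM rhodamine-CoA and 12.5 uM BHQ-2-labelled ybbR peptide in pH 7.6 Hepes/MgCl2 buffer. Enzyme was pre-incubated with compound for 15 min at room temperature. Rate was taken from the 30-min fluorescence change (525/598 nm).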
ClpP mod: qHTS Assay for Activators of ClpP; AID 651965, 2013; purified B. subtilis ClpP, FRET peptide cleavage, 20 min; Potency, µM (top dose mostly 57.5 µM), for the others: at the highest dose activity change, negative = active; 340,000 compounds, 1.9% hits; ATP-dependent Clp protease proteolytic subunit (Bacillus subtilis (strain 168)), P80244; active = well fitted falling curve with a large enough effect; inconclusive = small, poorly fitted or top-dose-only effect; inactive = no such curve, though single readings can be large or run the other way; note: potency is the fitted concentration of half-maximal effect; the source files actives as falling curves though it sought activators and does not explain the sign; nearly all actives have a fitted effect of over 65% in size; many hits overshoot -100%
Target sequence (P80244 whole entry, looked up): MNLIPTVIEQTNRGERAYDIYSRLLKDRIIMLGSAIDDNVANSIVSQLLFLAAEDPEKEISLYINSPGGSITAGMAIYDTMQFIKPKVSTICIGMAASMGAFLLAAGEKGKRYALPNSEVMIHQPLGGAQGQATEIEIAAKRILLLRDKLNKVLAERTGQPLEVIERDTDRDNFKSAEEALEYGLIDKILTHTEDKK
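Purified B. subtilis ClpP, 10 microg/mL final in Tris/HCl pH8 with KCl, BSA, glycerol and Tween-20, cleaved an Abz/nitrotyrosine-quenched decapeptide. Fluorescence (ex 320, em 430) was read at 0 and 20 min at room temperature. Delta was normalized to 5.8 microM ADEP and DMSO/no-enzyme controls.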
Menin-MLL FL inh: qHTS Assay for Inhibitors Targeting the Menin-MLL Interaction in MLL Related Leukemias: Competition With Fluorescein Labeled MLL-derived Peptide. Fluorescence polarization, fluorescein-MLL peptide displacement from menin. FP activity change, % at 61.4 µM. 290,000 tested, under 10 active. AID 1766, 2009; inconclusive = falling polarisation curve, or a change in total fluorescence; inactive = total fluorescence flat and polarisation flat or rising; no compound was filed as active; the % refers to the polarisation; negative = inhibition;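 note: % of control where 0% means no effect; inhibitors lower the polarisation; unlabelled MLL peptide was the positive control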
gsp ag: qHTS for Agonist of gsp, the Etiologic Mutation Responsible for Fibrous Dysplasia/McCune-Albright Syndrome: qHTS; Potency, µM (doses to about 76.9 µM), inactives show top-dose activation (cAMP increase), most hits filed as activators; 340,000 compounds, 0.13% hits; gsp mutant cells, cAMP HTRF, 30 min; control for the full effect not named in the record; AID 624287, 2012; active = well fitted activation curve with a large enough effect; inconclusive = small, poorly fitted or top-dose-only effect, or another doubt; inactive = no such curve, though single readings can be large or run the other way; cell line not stated here;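 note: phosphodiesterase inhibitor Ro 20-1724 added with compounds to block cAMP breakdown; potency is the fitted concentration of half-maximal effect; nearly all actives have a fitted effect of over 60% in size; about a fifth of the inactives were tested at one dose only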
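Cells in DMEM/10% FBS with G418 were pretreated with compounds in DMSO plus […] (300 uM stock) for 30 min at 37C. cAMP was measured by HTRF (cAMP-d2 plus anti-cAMP antibody-K) after 30 min at room temperature.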
TRPML1 inh: qHTS for Inhibitors of the Human Mucolipin Transient Receptor Potential 1 (TRPML1). TRPML1-inducible cells, Ca2+ dye fluorescence, FDSS; stronger effect = lower value; inhibition of EC80 agonist-evoked calcium signal. AID 624415, 2012. 390,000 compounds, 0.02% hits. activity change, negative = inhibition, % (test concentration not listed); in the data active means activity change below about -50%; inconclusive means about -30% to -50%; inactive means above about -30%;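 note: stimulus is agonist 54-4 at its EC80 concentration; % is set by controls: 0 for no effect and ±100 for the full control effect; compound concentration not given in the record; the text of the record puts the active cut at -80%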
Target sequence (Q9GZU1 whole entry, looked up): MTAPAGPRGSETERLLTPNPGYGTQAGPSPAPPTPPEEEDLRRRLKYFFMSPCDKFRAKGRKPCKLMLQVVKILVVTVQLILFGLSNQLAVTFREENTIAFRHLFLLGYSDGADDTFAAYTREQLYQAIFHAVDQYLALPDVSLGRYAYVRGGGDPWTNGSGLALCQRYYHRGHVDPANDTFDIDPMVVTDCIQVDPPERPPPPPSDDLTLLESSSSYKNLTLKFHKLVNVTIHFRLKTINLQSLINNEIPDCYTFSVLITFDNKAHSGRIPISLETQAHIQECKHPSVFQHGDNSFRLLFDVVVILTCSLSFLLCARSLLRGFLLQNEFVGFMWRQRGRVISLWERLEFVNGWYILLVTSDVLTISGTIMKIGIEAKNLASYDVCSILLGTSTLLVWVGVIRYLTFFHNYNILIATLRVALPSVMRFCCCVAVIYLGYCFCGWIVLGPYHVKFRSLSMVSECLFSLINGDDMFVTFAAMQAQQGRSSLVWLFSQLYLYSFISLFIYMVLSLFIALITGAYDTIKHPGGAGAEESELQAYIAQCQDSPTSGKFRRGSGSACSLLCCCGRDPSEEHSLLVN
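Calcium fluorescence in TRPML1-DL cells induced overnight with Tet: a 110 s read after compound pin addition, then a 110 s antagonist read after challenge with 54-4 at 4 uM final (EC80).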
gsp antagonist: qHTS for Antagonists of gsp, the Etiologic Mutation Responsible for Fibrous Dysplasia/McCune-Albright Syndrome: qHTS. gsp-mutant cells, cAMP HTRF, 30 min; control for the full effect not named in the record. Potency, µM (titrated, usually from 76.9 µM), inactives show top-dose activity change, negative = inhibition, actives largely listed as inhibitors. 340,000 compounds, 0.4% hits; active = falling curve of any shape with a large fitted effect; inconclusive = falling curve, mostly with a smaller effect; inactive = flat or rising curve; cell line not stated here;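 note: intracellular cAMP measured with PDE inhibitor Ro 20-1724 present during compound exposure; potency is the fitted concentration of half-maximal effect; % is set by controls: 0 for no effect and ±100 for the full control effect; nearly all actives have a fitted effect of over 65% in size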
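Cells in G418 medium, seeded 16-24 h, 37C; buffer exchange to DPBS + 1 mM CaCl2, 0.5 mM MgCl2, 0.05% BSA; cpds in DMSO + […] (300 uM stock), 30 min 37C; HTRF cAMP detection.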
TRPV1 potentiator: HTS Assay for Compounds that Act as Potentiators of the Vanilloid Receptor 1; Transient receptor potential cation channel subfamily V member 1 (Homo sapiens), Q8NER1; TRPV1-expressing cells, Fluo-8 calcium influx, capsaicin EC20 potentiation; host cell line not named in the record; control for the full effect not named in the record; potentiation, % at 8.33 µM; 320,000 compounds, 0.02% hits; AID 540277, 2011; active means potentiation above 80%; inconclusive means 30% to 80%; inactive means below 30%; note: 0% is about no effect
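Fluo-8 calcium influx in TRPV1-expressing cells, kinetic read (ex 480/em 520 nm). Compound added and read 3 min for agonist activity, followed by capsaicin at EC20 final and 2 min further read for enhancement.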
An asterisk follows results filed as active; ? = inconclusive; nt = not tested or not shown; & = joins results of further samples; [ ] = another dose, or the depositor's remark.

SMILES	Sfp PPTase inh	ClpP mod	Menin-MLL FL inh	gsp ag	TRPML1 inh	gsp antagonist	TRPV1 potentiator
O=C(N/N=C/c1cc([N+](=O)[O-])ccc1O)c1cccc(NC(=O)c2cccc(Cl)c2)c1	24%	nt	-4.6	-3%	5	-2%	-1
CC(C)c1ccc(NC(=S)Nc2ccc3[nH]c(=O)[nH]c3c2)cc1	?	0.7%	3.7	11%	nt	8%	nt
CC(CNS(=O)(=O)c1ccccc1)Sc1ncccn1 (stereo not drawn)	17%	nt	0.7	6%[15.4 µM]	-5	6%	-8
COc1ccc(CCNC(=O)c2ccc3ccccc3n2)cc1OC	-1%	nt	-0.2	0%	27	0%	-7
CCc1nnc(NC(=O)c2nc3nccc(C)n3n2)s1	?	0.7%	0.8	7%	-1	3%	-17
Cc1cccc(N2CCN(C(=S)NC3CCCCC3)CC2)c1C	15%	-1.1%	2.7	-12%	-5	-5%	-19
CC(C)(C)c1ccc(N2C(=O)CSC2c2cccnc2)cc1 (stereo not drawn)	13%	nt	1.2	16%[15.4 µM]	-1	-6%	-3
C[C@H](CO)N1C[C@H](C)[C@@H](CN(C)C(=O)Nc2ccc(C(F)(F)F)cc2)Oc2ccc(NC(=O)Nc3ccc4c(c3)OCO4)cc2C1=O	nt	-0.3%	nt	nt	-11	-5%	nt
CC1=C(C(=O)c2ccccc2)C(c2cccc([N+](=O)[O-])c2)NC(=S)N1 (stereo not drawn)	17%	0.2%	-5.6	2%	1	-7%	-8
O=C(COC(=O)COc1ccccc1)NCc1ccco1	nt	0.7%	nt	-33%[inhibitor]	-3	0%	-4
Cc1ccc(/C=C/c2onc(C)c2S(=O)(=O)N2CCC(C(=O)NC(C)(C)C)CC2)cc1	16%	-12%	3.6	15%	49	-18%	-4
COc1ccc(N2CCN(C(=O)c3cc(-c4cc(OC)ccc4OC)nc4ccccc34)CC2)cc1	-1%	-0.3%	-4.4	-59%[inhibitor]	-6	?	7
COc1cc(OC)cc(C(=O)N[C@H](C(=O)OCC(=O)c2ccc3c(c2)NC(=O)CO3)C(C)C)c1	-7%	-2.1%	3.6	-47%[inhibitor]	-10	-10%	10
CCOC(=O)N1CCC(Nc2ncnc3c2cnn3-c2ccccc2)CC1	20%	?	4.9	-35%[inhibitor]	4	?	-5
O=C(CSc1nnc(-c2ccco2)n1-c1ccccc1)Nc1c(Cl)cc(Cl)cc1C(=O)O	nt	1.4%	nt	0%[15.4 µM]	16	-6%	nt
COC(=O)c1sc(N)c(C(=O)OC)c1COC(=O)CNS(=O)(=O)c1ccc(C)cc1	-19%	0.9%	2.2	-10%	-2	2%	3
CC(C)C(C(=O)NCc1ccccc1)N(CC1CCCO1)C(=O)CNS(=O)(=O)c1ccccc1 (stereo not drawn)	-6%	nt	-4.9	-5%	-1	0%	25
CC(C)Sc1nc(SCC(=O)O)c2c3c(sc2n1)COC(C)(C)C3	13%	2.7%	-1.8	?	-16	-21%	1
O=C(COc1ccccc1)Nc1ccccc1NS(=O)(=O)c1cccs1	-7%	nt	-1.6	-12%	3	-7%	3
CCOC(=O)N1CCN(C(=O)CNC(=O)c2ccc(Cl)cc2Cl)CC1	nt	1.0%	nt	-18%	-4	12%	-2
CC(NC(=O)C1(c2cccs2)CCOCC1)c1ccccc1 (stereo not drawn)	10%	-3.5%&-1.4%	11	-18%	17&-11	9%	0
Cc1nc2cc(-c3sccc3-n3cccc3)nn2c(C)c1C	-19%	-28%	3.5	19%	21	2%	nt
CCOC(=O)c1cnn(-c2sc(C(=O)OCC)c(C)c2C(=O)OCC)c1N	nt	0.3%	nt	18%	3	-20%	nt
NC(=O)c1ccsc1NC(=O)c1cccs1	nt	-0.8%	nt	17%	-21	3%	nt
O=C(NNC(=O)C1CC1c1ccccc1)Nc1cccc(Cl)c1 (stereo not drawn)	-2%	-0.5%	-2.2	-19%	39	7%	15
N#CC(C(=O)NC1CCCCC1)c1nc2ccccc2nc1N1CCN(c2ccccc2F)CC1 (stereo not drawn)	18%	-0.5%	?	1%	15	12%	12
COc1ccc(-c2nc3n(c2C)CCC3)cc1	6%	nt	0.8	9%[15.4 µM]	-5	7%	16
COc1cccc(NC(=O)CSc2ccc3nnc(-c4cccnc4)n3n2)c1	6%	-3.8%	4.0	?	7	4%	11
CCCCc1nnc(NC(=O)CCN2C(=O)C3CC=CCC3C2=O)s1 (stereo not drawn)	nt	0.4%	nt	-31%[inhibitor]	-3	-11%	-3
O=C1Nc2ccccc2C(O)(C(=O)NC2CC2)N1c1ccc(Cl)c(Cl)c1 (stereo not drawn)	20%	-1.6%	1.9	-2%	-8	-8%	-21

No new results follow: entries from further up.
SMILES	Sfp PPTase inh	ClpP mod	Menin-MLL FL inh	gsp ag	TRPML1 inh	gsp antagonist	TRPV1 potentiator
COC(=O)c1sc(N)c(C(=O)OC)c1COC(=O)CNS(=O)(=O)c1ccc(C)cc1	-19%	0.9%	2.2	-10%	-2	2%	3
CC(C)C(C(=O)NCc1ccccc1)N(CC1CCCO1)C(=O)CNS(=O)(=O)c1ccccc1 (stereo not drawn)	-6%	nt	-4.9	-5%	-1	0%	25
CC(C)Sc1nc(SCC(=O)O)c2c3c(sc2n1)COC(C)(C)C3	13%	2.7%	-1.8	?	-16	-21%	1
O=C(COc1ccccc1)Nc1ccccc1NS(=O)(=O)c1cccs1	-7%	nt	-1.6	-12%	3	-7%	3
CCOC(=O)N1CCN(C(=O)CNC(=O)c2ccc(Cl)cc2Cl)CC1	nt	1.0%	nt	-18%	-4	12%	-2

Following part
SMILES	Sfp PPTase inh	ClpP mod	Menin-MLL FL inh	gsp ag	TRPML1 inh	gsp antagonist	TRPV1 potentiator
COc1ccc(CCN(C)C(=O)c2cc(-c3ccc(C)cc3)nc3ccccc23)cc1OC	nt	-13%	nt	-34%[inhibitor]	-7	-6%	nt
CC(=O)/C(C#N)=C1\NC(=O)C(Cc2ccccc2C)S1 (stereo not drawn)	-30%	nt	1.3	-6%[15.4 µM]	0	-24%	-5
Cc1c(C(=O)Nc2nnc(C3CC3)s2)oc2c(Cl)cccc12	nt	1.3%	nt	-19%	1	?	2
CC(C)C(=O)Nc1nnc(Cc2ccccc2)s1	-3%	-2.2%	0.2	-17%	3	11%	-5
CCOC(=O)C1CCN(CC(=O)c2c(C)[nH]c3cc(C)ccc23)CC1	6%	0.5%	-2.8	1%	-8	8%	-12
CCN(CC)CCSc1nc2c([nH]1)c(=S)n(C)c(=O)n2C	nt	-28%	nt	-10%	1	8%	nt
Cc1cc(NS(=O)(=O)c2ccc(NC(=O)c3cc4ccccc4o3)cc2)nc(C)n1	1%	4.3%	6.2	2%	3	-11%	28
COc1ccccc1NC(=O)Cc1nnc(SCC(=O)NC2=NCCS2)n1C	20%	nt	-3.1	3%	-1	7%	-4
CCOc1ccc(C2NC(=O)c3sc(=S)n(-c4ccccc4)c3N2)cc1 (stereo not drawn)	?	-7.0%	1.4	-27%[15.4 µM]	-4	5%	3
CCn1cc(SCC(=O)NCc2ccc3c(c2)OCO3)c2ccccc21	-13%	0.4%	0.7	?	15	1%	-17
CCOc1ccc(C(=O)N2CCCN(C(=O)c3ccc(OCC)cc3)CC2)cc1	-6%	-4.1%	-0.3	-13%	0	-6%	-21
Cc1ccc(NC(=O)c2cccc3c2-c2ccccc2C3=O)cc1C	7%	0.9%	0.4	11%	0	-17%	4
O=C(COC(=O)COc1ccccc1)Nc1cccnc1Cl	nt	1.7%	nt	12%[15.4 µM]	34	7%	nt
CC1CCCN(CCCNC(=O)c2nn(C)c3c2CSc2ccccc2-3)C1 (stereo not drawn)	2%	-1.4%	-4.2	5%	-8	10%	-3
CN1CCN(C(=O)c2ccc(N(C)S(=O)(=O)c3cccs3)cc2)CC1	1%	nt	1.0	1%	14	-3%	9

An excerpt from above in order of the Sfp PPTase inh value, high to low.
Structure | Sfp PPTase inh | Menin-MLL FL inh | gsp ag | TRPML1 inh
CCOc1ccc(C(=O)N2CCCN(C(=O)c3ccc(OCC)cc3)CC2)cc1 | -6% | -0.3 | -13% | 0
CCn1cc(SCC(=O)NCc2ccc3c(c2)OCO3)c2ccccc21 | -13% | 0.7 | ? | 15
CC(=O)/C(C#N)=C1\NC(=O)C(Cc2ccccc2C)S1 (stereo not drawn) | -30% | 1.3 | -6%[15.4 µM] | 0

(cont.)
SMILES	Sfp PPTase inh	ClpP mod	Menin-MLL FL inh	gsp ag	TRPML1 inh	gsp antagonist	TRPV1 potentiator
Cc1cc(N/N=C2/CCCc3ccccc32)nc2ccccc12	?	?	-1.0	1%	-11	-23%	-7
CN(CC(=O)Nc1ccc(N2CCOCC2)cc1)C(=O)CCNC(=O)c1ccccc1Cl	nt	-5.7%	nt	-16%	-5	6%	-15
COC(=O)C(CCSC)NC(=O)c1cc2c(n(-c3ccc(C)cc3)c1=O)CCCC2=O (stereo not drawn)	4%	nt	0.0	0%[15.4 µM]	-4	-7%	-6
COc1ccc(-n2nc([N+](=O)[O-])c(=NCc3cccnc3)n2O)cc1	5%	0.4%	2.0	-20%	-18	-1%	?
O=C(COc1ccc2ccccc2c1)NNC(=O)Nc1ccc(F)cc1F	-12%	-21%	0.4	1%	-12	-7%	2
Cc1c(CC(=O)NCCCC(=O)O)c(=O)oc2cc3oc4c(c3cc12)CCCC4	2%	-8.3%	-1.4	0%[15.4 µM]	-2	2%	12
COc1cc(/C=C/C(=O)c2ccc3c(c2)OCO3)cc(Cl)c1O	-20%	nt	?	?	2	-7%	0

Assay outcomes as filed in PubChem BioAssay.

Random draw from the library; overall some 4.9% were active at least once.
